# Compound activity as filed in PubChem.
# H5N1 antiviral = MDCK cell protection from H5N1 avian flu; cytopathic effect, luminescence, 72 h; hits give high values; no value below 0 was filed and about half of the inactive calls have no number; reference of the scale not given here; inhibition, % at 50 µM; 96,000 compounds, 0.07% hits; AID 740, 2007; in the data active = inhibition above about 25%
# * hit, by the source's call; i = inactive. Only part of the results is shown. The share of hits here may be higher or lower than overall.
SMILES,H5N1 antiviral
Cc1nn(C(=O)c2ccc3c(c2)OCO3)c(N)c1-c1ccccc1,i
CC(NC1CCCCC1)C(O)C12CC3CC(CC(C3)C1)C2 (configuration not stated),i
CC(=O)NCCN=Cc1sc2ccccc2c1O,2.0
CN1CCN(CCC(=O)Nc2ccc(OCc3ccccc3)cc2)CC1,i
CC(=O)c1ccccc1OC(=O)c1ccco1,i
Cc1cccc(-n2cnc(C(=O)N/N=C/c3ccccc3)c2)n1,0.1
CCC(Sc1ncnc2c1nnn2-c1ccc(F)cc1)C(=O)OC (configuration not stated),1.0
Cc1cc(OC(C)C)c2c(-c3ccccc3)cc(=O)oc2c1,1.2
O=C1c2ccccc2C(Nc2cccc(C(F)(F)F)c2)N1Cc1ccco1 (configuration not stated),0.2
CCN(CC)c1nc(C#N)nc(N(CC)CC)n1,2.8
O=C1CCCc2c1cc(C(=O)Nc1ccc(Cl)cn1)c(=O)n2-c1ccccc1,i
c1ccc(-c2nnc(N3CCOCC3)nc2-c2ccccc2)cc1,1.5
OCc1cc(CO)c(O)c(CCc2ccccc2)n1,i
COCCn1c(C)cc(C(=O)COC(=O)CCN2C(=O)c3ccccc3C2=O)c1C,0.4
COc1ccccc1C(c1nnnn1CS(=O)(=O)c1ccc(C)cc1)N1CCSCC1 (configuration not stated),0.3
COc1ccc(S(=O)(=O)Cc2ccc(C(=O)N3CCN(C(=O)c4ccco4)CC3)o2)cc1,5.5
O=C(Cn1ncc2c3ccccc3n(Cc3ccccc3)c2c1=O)N1CCN(c2ncccn2)CC1,1.8
c1ccc2c(c1)CC(N1CCCCC1)c1ccccc1N2 (configuration not stated),0.1
CC(C)Cc1nc(N2CCN(C(=O)C(C)C)CC2)c(C#N)c2c1CCC2,0.2
Cc1cc(C)n(C(=O)c2ccc(S(=O)(=O)NCC3CCCO3)cc2)n1 (configuration not stated),i

# Five structures from above, ordered by SMILES length, ascending:
SMILES,H5N1 antiviral
CC(=O)c1ccccc1OC(=O)c1ccco1,i
Cc1cc(OC(C)C)c2c(-c3ccccc3)cc(=O)oc2c1,1.2
Cc1cccc(-n2cnc(C(=O)N/N=C/c3ccccc3)c2)n1,0.1
CC(C)Cc1nc(N2CCN(C(=O)C(C)C)CC2)c(C#N)c2c1CCC2,0.2
O=C1CCCc2c1cc(C(=O)Nc1ccc(Cl)cn1)c(=O)n2-c1ccccc1,i

# (more compounds)
SMILES,H5N1 antiviral
COc1ccc(C(=O)CC(Nc2ccc([N+](=O)[O-])cc2)c2ccc(OC)cc2)cc1 (configuration not stated),i
O=C(OCn1ncc(Br)c(Br)c1=O)c1ccc(F)cc1,i
Cc1ccc(-c2nc3sc4c(N)ncnc4c3c3c2CCCC3)cc1,0.7
Cc1ccc(S(=O)(=O)NNC(=O)c2cc3cc4ccccc4nc3s2)cc1,0.4
O=C(CSc1nc2c(sc3ccccc32)c(=O)n1Cc1ccccc1)NCC1CCCO1 (configuration not stated),0.1
O=S(=O)(Nc1ccccc1)c1ccc(F)cc1,i
CCc1ccc(NC(=O)C(C)Nc2ccc(S(=O)(=O)NC(C)=O)cc2)cc1 (configuration not stated),i
CCC(C)c1ccc(OCCn2cc(/C=N/NC(=O)CSc3nnc(C)s3)c3ccccc32)cc1 (configuration not stated),0.1
O=S(=O)(c1ccc(NC2CCCc3ccccc32)nc1)N1CCOCC1 (configuration not stated),i
COc1cccc(CNC(=O)C2CCN(S(=O)(=O)c3ccc4c(c3)CCC(=O)N4)CC2)c1,0.9
COc1ccc(Br)cc1/C=C/C(=O)Nc1c(C)cccc1C,i
CCOc1cc2[nH]c(=S)n(CCCN3CCCC3=O)c(=O)c2cc1OCC,i
COC(=O)CC1SC(=O)NC1=Nc1cccc(C)c1 (configuration not stated),i
CCOC(=O)c1c(N)c(C#N)cn1-c1ccccc1,0.1
Cc1nc2ccccc2c2oc(C(=O)NCCN3CCCCC3C)cc12 (configuration not stated),1.2
Cc1nc2ncnn2c(Nc2ccc3c(c2)OCO3)c1Cc1ccccc1,1.1
COC(=O)c1cccc(Nc2ncnc3ccc(C)cc23)c1,1.1
Cc1nc2nc(COc3ccccc3)[nH]n2c(=O)c1Cc1ccccc1,1.0
CC12CCC(c3c(C(=O)O)nn(-c4ccc(F)cc4)c31)C2(C)C (configuration not stated),i
CCOC(=O)N1CCN(C(=O)CS(=O)(=O)c2cn(Cc3ccc(Cl)cc3)c3ccccc23)CC1,0.2
CN(C1CCCCC1)S(=O)(=O)c1ccc(S(=O)(=O)N2CCN(C(=O)c3ccccc3F)CC2)cc1,0.6
COc1ccccc1N1CCN(C(=O)Cn2nnc(-c3cccs3)n2)CC1,i
Cc1cc(C)n(-c2nc3ccccc3c(=O)n2OCC(=O)Nc2c(C)cccc2C)n1,0.8
COc1ccc(C(=O)Nc2cccc(N(C)S(C)(=O)=O)c2)cc1OC,i
Cc1c(Cl)cccc1N1C(=O)CC(N(O)c2ccccc2)C1=O (configuration not stated),i
Cn1c(SCC(=O)N2CCOCC2)nc2cccnc21,0.5
CCOC(=O)Cc1nnc(Nc2cccc(O)c2)c2ccccc12,1.2
Cc1nc2oc3c(NCc4ccccc4)ncnc3c2c2c1COC(C)(C)C2,i
CCCNc1oc(-c2cccc3ccccc23)nc1C#N,1.9
Cc1ccc(-c2nc(NC(=O)CSc3nnnn3-c3ccccc3)ns2)cc1,i
COc1ccc(OCc2nnc(SCC(N)=O)n2N)cc1,i
Nc1ccc(-c2cnc(-c3ccc(N)cc3)nc2)cc1,i
COc1cc(C(=O)NC(=S)Nc2ccc3oc(=O)ccc3c2)cc(OC)c1OC,i
Cc1ccnc(NC(=O)C2CCCN(S(=O)(=O)c3cnc[nH]3)C2)c1 (configuration not stated),i
Cc1cc(Nc2ccc(F)cc2Cl)n2nc(C)nc2n1,i
Cc1cc(C)n(-c2ccc(C(=O)OCC(=O)Nc3ccc(S(=O)(=O)N4CCOCC4)cc3)cc2)n1,0.9
CN(C(N)=S)c1ccccc1,i
O=C(O)Cn1cc(C(=O)c2ccccc2)c2ccccc21,i
O=C(C1CCN(S(=O)(=O)c2ccc(Br)s2)CC1)N1CCc2ccccc21,1.1
Cc1ccc(-c2noc(CCCOc3ccc(Cl)cc3Cl)n2)cc1,i
CCCCCCn1c(N2CCC(C)CC2)nc2c1c(=O)[nH]c(=O)n2C,i
COC(=O)c1sccc1NC(=O)c1ccc2c(c1)OCO2,0.5
CC1(C)CC(=O)C2=C(C1)Oc1ncn(CCO)c(=N)c1C2c1ccccc1 (configuration not stated),i
COc1ccc(CN(C(=O)CSc2nnc(-c3ccccc3F)o2)c2ccc(F)cc2)cc1,i
COCCCNC(=O)CCN1C(=O)COc2ccccc21,0.5
CN(C)S(=O)(=O)N(CC(=O)Nc1ccc(F)c(F)c1)c1ccccc1,i
CC(=O)OCc1nc2ccccc2s1,i
CC(NC(=O)COC(=O)c1ccco1)c1ccccc1 (configuration not stated),1.5
Cc1cccc(C(=O)Nc2cccc(OC(=O)c3cccc(C)c3)c2)c1,i
C=CCn1c(COc2ccc(Cl)cc2)nnc1SCC(=O)N/N=C/c1ccccc1,2.5
O=C(c1ccccc1)c1cccn1CC(=O)N1CCCCCC1,0.6
CC(C)C(=O)Nc1ccccc1C(=O)N/N=C/c1ccc([N+](=O)[O-])cc1,i
O=C1NC(c2cccnc2)C(C(=O)c2cccs2)C(O)(C(F)(F)F)N1 (configuration not stated),i
OC(CNCc1ccco1)Cn1c2ccccc2c2ccccc21 (configuration not stated),i
Cc1nnc(SCC(=O)c2c(N)n(C)c(=O)n(C)c2=O)n1Cc1ccccc1,0.2
Cc1ccc2[nH]c(=O)c(CNC(C)C)cc2c1,1.6
CC(C)(C)NC(=S)NCc1cccnc1,i
O=P(Nc1ccccc1)(Nc1ccccc1)Oc1cccc(Cl)c1,i
O=C(CSCc1ccc(Cl)cc1)Nc1ccccc1C(=O)N1CCOCC1,0.2
Cc1nnc(C)n1/N=C/c1ccc(O)cc1,0.2

# At a glance, part of the list above:
SMILES,H5N1 antiviral
Cc1cccc(C(=O)Nc2cccc(OC(=O)c3cccc(C)c3)c2)c1,i
C=CCn1c(COc2ccc(Cl)cc2)nnc1SCC(=O)N/N=C/c1ccccc1,2.5
O=C(c1ccccc1)c1cccn1CC(=O)N1CCCCCC1,0.6
CC(C)C(=O)Nc1ccccc1C(=O)N/N=C/c1ccc([N+](=O)[O-])cc1,i
O=C1NC(c2cccnc2)C(C(=O)c2cccs2)C(O)(C(F)(F)F)N1 (configuration not stated),i
OC(CNCc1ccco1)Cn1c2ccccc2c2ccccc21 (configuration not stated),i
Cc1nnc(SCC(=O)c2c(N)n(C)c(=O)n(C)c2=O)n1Cc1ccccc1,0.2

# The results go on.
SMILES,H5N1 antiviral
CC(=O)NCC(=O)NC(C(=O)Nc1ccc2c(c1)OCCO2)c1ccc(C)cc1 (configuration not stated),i
COc1ccc(-c2nc3c(n2O)CCC/C3=N\O)cc1,i
Cc1cccc(NC(=O)CN2C(=O)NC(C)(c3ccc4c(c3)OCO4)C2=O)c1 (configuration not stated),1.1
COc1ccccc1-c1ccc(NC2CCCCC2)nn1,0.5
Cc1cc(C)n(S(=O)(=O)c2ccc(C(C)(C)C)cc2)n1,2.9
CCOC(=O)c1[nH]c2ccc(F)cc2c1NC(=O)CN1CCN(C/C=C/c2ccccc2)CC1,i
CC1CCN(C(c2cccs2)c2nnnn2Cc2ccccc2)CC1 (configuration not stated),3.1
N#CCCCn1c(-c2ccccc2)noc1=O,1.2
CCN(C(=O)c1cnc2scc(C)n2c1=O)c1ccccc1C,0.7
Cc1ccc(Cl)cc1N1CCN(S(=O)(=O)c2cnc[nH]2)CC1,i
CC(=O)Nc1ccc(S(=O)(=O)NCCNC(=O)c2ccccc2F)cc1,i
CCCn1c(CC)nc([N+](=O)[O-])c1S(=O)(=O)c1ccccc1,0.3
COC(=O)C1=CNC=C(C(=O)OC)C1c1cccc(OC)c1,0.4
CCOc1ccc(S(=O)(=O)N2CCc3ccccc3C2)cc1,1.8
Nc1c(N(C(=O)Nc2ccc(Cl)c(Cl)c2)C2CCCC2)c(=O)[nH]c(=O)n1Cc1ccccc1,4.5
CCOC(=O)c1oc2ccc(S(=O)(=O)Nc3ccc4c(c3)n(C)c(=O)n4C)cc2c1C,1.2
Cc1ccc(-n2nc(C)c3c2OC(N)=C(C#N)C3c2ccccc2F)cc1 (configuration not stated),i
O=c1[nH]cnc2scc(-c3cccs3)c12,i
Cc1nc(NC2=NCN(C3CCCCC3C)CN2)nc2ccccc12 (configuration not stated),0.8
O=C(CSc1nnc(-c2ccccc2)n1Cc1ccco1)NCc1ccc2c(c1)OCO2,6.1
COc1cc(NC(=O)Cc2ccccc2)cc(OC)c1,0.7
CC(C)n1nc(C(=O)OCC(=O)c2c[nH]c3ccccc23)c2ccccc2c1=O,i
O=C(COC(=O)c1cnccn1)NCCc1ccccc1,0.5
CC(C)Cn1c(CN2CCN(c3ccccc3F)CC2)nc2c1c(=O)[nH]c(=O)n2C,0.7
CN(C)C(=O)Cn1nc(-c2ccccc2)c2ccccc2c1=O,0.0
Cc1ccc(C)c2c1[nH]c1ccc([N+](=O)[O-])cc12,1.5
N#Cc1c(-c2ccc3c(c2)OCO3)csc1N,i
CCCN(Cc1cc2ccc(C)cc2[nH]c1=O)C(=O)c1cccnc1,i
COc1ccc(S(=O)(=O)N2CCN(C)CC2)cc1Br,1.5
Cc1ccc2c(c1)C1CN(C)CCC1N2C(=O)Nc1cccc(C(F)(F)F)c1 (configuration not stated),i
Cc1nc(N2CCN(C)CC2)c2c(C)c(C(=O)Nc3ccc(C)c(F)c3)sc2n1,i
CC(NC(=O)COc1ccccc1)C(=O)OCC(=O)c1cc2ccccc2o1 (configuration not stated),i
Cc1ccc(Cn2nnc3c(=O)n(Cc4cccc(C)c4)cnc32)cc1,i
Cc1ccc(C)c(NC(NC(=O)c2cccnc2)C(Cl)(Cl)Cl)c1 (configuration not stated),1.1
O=C(Nc1ccnc(-c2cccnc2)n1)c1ccccc1Cl,0.6
CCOc1ccccc1NS(=O)(=O)c1cccc2nsnc12,1.4
O=C1CCCC2=C1C(c1ccncc1)Nc1ccccc1N2 (configuration not stated),0.6
Cc1c(Cc2c(Cl)cccc2Cl)c(=O)ccn1C(C)c1ccccc1 (configuration not stated),2.6
CC(=O)OCc1c(F)c(F)c(-n2nc(C)cc2C)c(F)c1F,i
O=C(CCc1ccccc1)NCc1ccccn1,i

# Some of the entries above, set out differently.
SMILES | H5N1 antiviral
CCCN(Cc1cc2ccc(C)cc2[nH]c1=O)C(=O)c1cccnc1 | i
COc1ccc(S(=O)(=O)N2CCN(C)CC2)cc1Br | 1.5
Cc1ccc2c(c1)C1CN(C)CCC1N2C(=O)Nc1cccc(C(F)(F)F)c1 (configuration not stated) | i

# More results:
SMILES,H5N1 antiviral
O=C1c2ccccc2C(=O)N1CCCP(=O)(O)CCc1ccccc1,i
COc1ccccc1-n1c(CNC(=O)c2ccco2)nnc1SCC(=O)Nc1cc(C)ccc1C,0.0
O=C(c1ccccc1)N1CCC(c2nc3c(nnn3Cc3ccccc3Cl)c(=O)[nH]2)CC1,1.7
CCOC(=O)c1cnc(-n2nc(C)cc2C)nc1Nc1cccc(C(=O)O)c1,3.1
CCOc1ccc(NC(=O)N(C2CCCCCC2)C2CCN(C(C)=O)CC2)cc1,i
CCOC(=O)c1cc(NC(=O)c2ccccc2)c(=O)oc1-c1ccccc1,i
O=C(NC(C(=O)c1ccccc1)N1CCOCC1)c1ccccc1 (configuration not stated),i
O=C(CC1(O)C(=O)Nc2ccccc21)c1ccccc1O (configuration not stated),i
O=C(Nc1cc(Cl)ccc1O)c1snnc1-c1ccccc1,11
CC(Sc1ccccc1)C(=O)Nc1cccc(N(C)S(C)(=O)=O)c1 (configuration not stated),0.6
Cc1nc(Sc2nnnn2C)c2c3c(sc2n1)CCC3,22
Cc1cc(=O)oc2cc(OC(C)C(=O)Nc3nccs3)ccc12 (configuration not stated),0.2
COc1cc(C(=O)N2CCN(C/C=C/c3ccccc3)CC2)cc(OC)c1C,i
Cc1cccc(OCc2nnc(N)s2)c1,i
COc1cc(C(=O)NCc2cccc3ccccc23)ccc1OCc1ccccc1,i
Cc1cc(C)nc(N2CCC(C(=O)N3CCN(c4cc(Cl)ccc4C)CC3)CC2)n1,i
c1ccc(Oc2cnc3ccccc3n2)cc1,i
COc1ccc(-c2nc(C#N)c(N3CCCCCC3)o2)cc1,1.9
CCOc1ccc(N(C(C)C(=O)NC2CCCCCC2)S(C)(=O)=O)cc1 (configuration not stated),2.7
